Source: PubChem
Cruzain noTriton – inhibitors of Trypanosoma cruzi cruzain without detergent; P25779; purified cruzain, Z-FR-AMC fluorescence, no detergent; Potency, µM, for the others: max response, negative = inhibition, actives largely listed as inhibitors; hit rate 2.3% among 200,000; active = well fitted curve in the direction sought with a large enough effect; inconclusive = small, poorly fitted or top-dose-only effect, or another doubt; inactive = no such curve, though single readings can be large; an effect the other way counts as inactive or inconclusive;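 note: plate controls were enzyme without inhibitor for no effect and buffer without enzyme for full effect; nearly all actives have a fitted effect of over 40% in size; top concentration of the series not given in the record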
Target sequence (P25779 123-467 limits assumed): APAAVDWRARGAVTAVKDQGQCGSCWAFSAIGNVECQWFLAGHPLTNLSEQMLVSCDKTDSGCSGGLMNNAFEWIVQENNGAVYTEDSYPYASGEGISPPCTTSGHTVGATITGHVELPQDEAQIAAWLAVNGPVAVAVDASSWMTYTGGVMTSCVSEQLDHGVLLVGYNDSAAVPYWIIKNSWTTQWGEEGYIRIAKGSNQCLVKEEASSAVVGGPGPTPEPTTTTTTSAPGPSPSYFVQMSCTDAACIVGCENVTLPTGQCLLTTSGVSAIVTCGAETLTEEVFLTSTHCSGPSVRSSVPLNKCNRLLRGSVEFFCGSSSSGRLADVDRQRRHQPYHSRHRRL
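Purified cruzain at 1.5 nM, pre-incubated 15 min with compound at room temperature in 100 mM sodium acetate pH 5.5, 5 mM DTT, 0.00005% Triton X-100. Reaction started with 2 uM Z-FR-AMC; AMC fluorescence increase over 60 s gives rate.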
LASV entry inh – blocks Lassa virus binding to or entry into cells | Lassa virus pseudotype entry inhibition, cell reporter; control for the full effect not named in the record | Potency, µM (titrated, usually from 37.9 µM), for the others: at the top dose activity change, negative = inhibition, usual class: inhibitors | hit rate 1.2% among 300,000; active means well fitted inhibition curve with a large enough effect; inconclusive means small, poorly fitted or top-dose-only effect, or effect the other way; inactive means flat fitted curve, though single readings scatter; tested in HEK293 cells; note: % is set by controls: 0 for no effect and ±100 for the full control effect; nearly all actives have a fitted effect of over 50% in size; luciferase read-out
RE007 growth inh – less growth of the S. pombe RE007 Vpr strain | S. pombe RE007 Vpr strain, BacTiter-Glo ATP luminescence, 24 h; control for the full effect not named in the record | Potency, µM (series often up to 92.2 µM), inactives show at the highest dose activity change, negative = less growth | hit rate 0.21% among 360,000; active = well fitted falling curve with a large enough effect; inconclusive = small, poorly fitted or top-dose-only effect; inactive = no such curve, though single readings can be large or run the other way;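 note: % is set by controls: 0 for no effect and ±100 for the full control effect; nearly all actives have a fitted effect of over 50% in size; the assay follows cell death caused by Vpr and the record does not say whether a fall means rescue or toxicity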
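Fission yeast strain RE007, carrying one chromosomally integrated HIV-1 vpr copy, was seeded at OD 0.01 in PMG+AL medium with 23 nL pinned compound. After 24 h at 30 °C and 99% humidity, viability was read by BacTiter-Glo luminescence.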
Marburg entry inh – inhibitors of Marburg virus binding or cell entry | Marburg virus pseudotyped entry inhibition, cell reporter; control for the full effect not named in the record; about a third of the inactives were read at about 46 µM | Potency, µM (doses to about 37.8 µM), for inactives: at the highest dose activity change, negative = inhibition, usual class: inhibitors | hit rate 1.8% among 300,000 | AID 540276; active = well fitted inhibition curve with a large enough effect; inconclusive = small, poorly fitted or top-dose-only effect, or effect the other way; inactive = flat fitted curve, though single readings scatter; tested in HEK293 cells; about a fifth of its hits are not listed in these tables; note: % is set by controls: 0 for no effect and ±100 for the full control effect; luciferase read-out
Cruzain inh Det – inhibitors of Trypanosoma cruzi cruzain with detergent; Potency, µM, for the others: max response, negative = inhibition, hits mostly inhibitors; hit rate 0.43% among 200,000; purified cruzain, Z-FR-AMC fluorescence, 0.01% Triton; P25779; active = well fitted curve in the direction sought with a large enough effect; inconclusive = small, poorly fitted or top-dose-only effect, or another doubt; inactive = no such curve, though single readings can be large; an effect the other way counts as inactive or inconclusive;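 note: plate controls were neutral wells for no effect and buffer without enzyme for full effect; nearly all actives have a fitted effect of over 40% in size; top concentration of the series not given in the record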
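Detergent-containing arm of a paired screen for aggregation-based inhibition: 0.01% Triton X-100 present. Cruzain at 1.5 nM cleaved 2 uM Z-FR-AMC at pH 5.5 with 5 mM DTT; AMC fluorescence gain over 60 s measured activity.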
2A StopGo – FMDV 2A StopGo reporter, luciferase signal; human cells with a luciferase reporter of 2A StopGo recoding; control for the full effect not named in the record; Potency, µM (series often up to 57.9 µM), for inactives: at the top dose signal change, negative = less light; hit rate 1.2% among 410,000; AID 1159524; active = well fitted falling curve with a large enough effect; inconclusive = small, poorly fitted or top-dose-only effect; inactive = no such curve, though single readings can be large or run the other way; tested in HEK293T cells; note: % is set by controls: 0 for no effect and ±100 for the full control effect; nearly all actives have a fitted effect of over 45% in size; luciferase light after 4 h
SARS PLpro yeast – SARS-CoV PLP inhibition in yeast | S. cerevisiae expressing SARS-CoV PLpro, growth rescue; control for the full effect not named in the record | Potency, µM (top dose mostly 32.9 µM), without a hit: at the highest dose activity, positive = growth rescue | hit rate 0.19% among 330,000 | AID 485353; note: 0% is about no effect; nearly all actives have a fitted effect of over 55% in size; growth read by luminescence after 48 h
NS1 function inh – inhibitors of influenza NS1 protein function; Potency, µM (titrated, usually from 46.1 µM), for inactives: top-dose activity, positive = more growth; hit rate 0.4% among 270,000; S. cerevisiae slowed by influenza A NS1, growth recovery by OD600; note: actives are rising curves; nearly all actives have a fitted effect of over 50% in size
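Growth recovery, yeast-based: influenza A NS1 expressed in S. cerevisiae causes slow growth, and suppressors are detected by OD600. The parent strain without NS1 is used as positive control.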
Starred values were filed as active, the others as inactive; u = inconclusive; x = no result given; [ ] = dose if it differs, or a comment. Unless noted, calls come from the whole dose curve; as a rule, active means well fitted rising curve with a large enough effect; inconclusive means small, poorly fitted or top-dose-only effect; inactive means no such curve, though single readings can be large or run the other way. Potency is the fitted concentration of half-maximal effect.

The opening 7 records, to show the layout:
SMILES | Cruzain noTriton | LASV entry inh | RE007 growth inh | Marburg entry inh | Cruzain inh Det | 2A StopGo | SARS PLpro yeast | NS1 function inh
CC(C)c1ccc(NC(=O)c2ccc3snnc3c2)cc1 | x | x | -1% | x | x | 39%[activator] | -2% | -12%
CCOC(=O)c1ccc(NC(=S)N2CCN(C)CC2)cc1 | x | -22% | -6% | 18% | x | 27% | 1% | -32%
COc1ccc(CCNCC(=O)Nc2ccc(C)c(S(=O)(=O)N(C)C)c2)cc1OC | x | x | 8% | x | x | u | 0% | 3%
COc1ccc(-c2onc(C)c2C)cc1S(=O)(=O)NCC(C)c1ccccc1 (configuration not stated) | -4% | -14%[46.1 µM] | x | x | -3.4% | -2% | x | x
COc1ccc(-c2ccc(-c3cc(=O)oc4cc(OC)c(OC)c(OC)c34)cc2)cc1F | -9% | x | -12% | x | 4.2% | -6% | 4% | x
O=C(COC(=O)c1cccnc1Cl)c1ccc2c(c1)OCCO2 | x | -26%[46.1 µM] | -19% | 13%[46.1 µM] | x | -26% | 4% | 10%
CCOc1ccccc1NC(=O)c1ccc2[nH]c(C)c(C)c2c1 | x | u | -17% | u | x | 50%[activator] | 4% | u

The list itself, from the start:
SMILES | Cruzain noTriton | LASV entry inh | RE007 growth inh | Marburg entry inh | Cruzain inh Det | 2A StopGo | SARS PLpro yeast | NS1 function inh
CC(C)c1ccc(NC(=O)c2ccc3snnc3c2)cc1 | x | x | -1% | x | x | 39%[activator] | -2% | -12%
CCOC(=O)c1ccc(NC(=S)N2CCN(C)CC2)cc1 | x | -22% | -6% | 18% | x | 27% | 1% | -32%
COc1ccc(CCNCC(=O)Nc2ccc(C)c(S(=O)(=O)N(C)C)c2)cc1OC | x | x | 8% | x | x | u | 0% | 3%
COc1ccc(-c2onc(C)c2C)cc1S(=O)(=O)NCC(C)c1ccccc1 (configuration not stated) | -4% | -14%[46.1 µM] | x | x | -3.4% | -2% | x | x
COc1ccc(-c2ccc(-c3cc(=O)oc4cc(OC)c(OC)c(OC)c34)cc2)cc1F | -9% | x | -12% | x | 4.2% | -6% | 4% | x
O=C(COC(=O)c1cccnc1Cl)c1ccc2c(c1)OCCO2 | x | -26%[46.1 µM] | -19% | 13%[46.1 µM] | x | -26% | 4% | 10%
CCOc1ccccc1NC(=O)c1ccc2[nH]c(C)c(C)c2c1 | x | u | -17% | u | x | 50%[activator] | 4% | u
O=C(COC(=O)c1cccc(F)c1)Nc1cccnc1Cl | x | 18% | -12% | 0% | x | 3% | -6% | x
CCOC(=O)C1(C)/C(=N/Nc2ccccc2OC)C(=O)C(=O)N1c1ccccc1 (configuration not stated) | x | 1%[46.1 µM] | -3% | u | x | -15% | 1% | -1%
CCCc1ccc(Oc2cc(Cl)nc(N)n2)cc1 | 2% | -1% | 8% | u | -1.7% | 31%[activator] | -5% | -9%
Cc1ccc(N2CC(C(=O)Nc3nc4ccc(S(C)(=O)=O)cc4s3)CC2=O)cc1 (configuration not stated) | x | 12%[46.1 µM] | -9% | 1%[46.1 µM] | x | -7% | 6% | -22%
Cc1cccc2c1-c1sc(C(=O)NCCCN3CCCC(C)C3)cc1CO2 (configuration not stated) | x | x | 2% | x | x | -11% | u | 8%
Cc1cccc(-c2noc(CCC(=O)NCc3ccco3)n2)c1 | -7% | 5% | -2% | 16% | 1.4% | 19% | -7% | -16%
COc1ccc(C=CC(=O)c2ccc(OC)c(OC)c2O)cc1OC | x | u | 4% | u | x | u | x | x
CC(CN1CCCCC1)OC(=O)c1ccc2c(c1)OCO2 (configuration not stated) | -1% | 7% | 0% | 11% | 6.1% | 7% | -2% | -6%
CC(c1ccccc1)n1cc(C(=O)NCc2ccccn2)nn1 (configuration not stated) | -3% | 22% | 5% | 1% | 0.8% | 25% | 9% | 4%
Cc1ccc2nc(NCc3ccccc3)c(C=NCc3cccnc3)c(=O)n2c1 | x | 6%[46.1 µM] | -12% | u | x | -5% | -1% | -39%
Cc1cc(C)n(CCC(=O)N2CCN(S(=O)(=O)c3ccccc3)CC2)n1 | x | 3% | -22% | 2%[46.1 µM] | x | -13% | -1% | 1%
Cc1ccc(CCNC(=O)c2cnc3c(-c4ccc(F)cc4)c(C)nn3c2C)cc1 | -21% | 28%[46.1 µM] | x | x | -2.3% | -8% | x | x
O=c1c2cc3c(cc2n(Cc2ccccc2)c(=O)n1Cc1nc(-c2ccccc2)no1)OCO3 | 11% | -3%[46.1 µM] | x | x | -1.3% | u | x | x
C#CCOCCOCCOCCNc1nc(N2CCOCC2)nc(N2CCN(C(=O)[C@H]([C@@H](C)O)n3cc(CCCCN)nn3)CC2)n1 | 2% | 2% | -7% | 2% | 2.0% | 2% | -2% | -6%
O=C(Nc1cccc(Cl)c1N1CCOCC1)c1cccnc1 | x | u | 13% | -11%[46.1 µM] | x | -6% | 2% | 1%
CCCc1cnc(N2CCN(S(C)(=O)=O)CC2)nc1 | x | x | 3% | x | x | 50%[activator] | 1% | 3%
COC(=O)c1c(NC(=O)/C=C/C(=O)O)sc(C)c1-c1ccc(C)cc1 | x | u | u | u | x | 0% | 0% | -6%
COCCCNc1nc2c(c(=O)n(C)c(=O)n2C)n1Cc1cccc(OC)c1 | 7% | -24% | 1% | -27%[46.1 µM] | -1.7% | u | 0% | 0%
SMILES | Cruzain noTriton | LASV entry inh | RE007 growth inh | Marburg entry inh | Cruzain inh Det | 2A StopGo | SARS PLpro yeast | NS1 function inh
CC(=O)Nc1c2c3c(cccc3n(C)c1=O)C(=O)c1ccccc1-2 | -12% | 1% | 1% | 2% | -6.7% | -21% | 1% | -2%
O=C1Nc2ccc(S(=O)(=O)NCCCO)c3cccc1c23 | x | x | -5% | x | x | 80%[activator] | -2% | 7%
OC1CCCN(Cc2cccc3ccccc23)C1 (configuration not stated) | -10% | 4% | -7% | 1% | -0.2% | -18% | 1% | 8%
Cc1coc2c(C)c3oc(=O)c(CCC(=O)N4C[C@H]5C[C@@H](C4)c4cccc(=O)n4C5)c(C)c3cc12 | x | x | -18% | x | x | -22% | 0% | 2%
CC(=O)c1sc(NC(=O)c2ccccc2F)nc1C | 2% | x | -26% | x | -3.9% | 13% | -18% | -15%
CNC(=S)N/N=C(\C)c1ccc2c(c1)OCCO2 | 11% | -1% | 3% | u | -6.7% | 18% | u | 3%
CCSC(=O)N1c2ccc(OC)cc2C=CC1C#N (configuration not stated) | x | u | u | u | x | -8% | x | x
COc1cccc(/C=C/C(=O)OCC(=O)NC2CC2)c1OC | x | -9% | -17% | 25% | x | 14% | -4% | x
CCCCn1c(N)c(N(CCOC)C(=O)CCNC(=O)c2ccccc2Cl)c(=O)[nH]c1=O | x | -1%[46.1 µM] | -4% | 16%[46.1 µM] | x | 10% | 3% | -5%
Cc1ccc(S(=O)(=O)N2CCN(C(=O)COC(=O)COc3ccccc3)CC2)cc1 | 19% | -5% | 11% | 24% | 2.9% | 2% | 8% | -8%
Cn1ccnc1CN1CCN(C(=O)c2cc(COc3ccc(F)c(F)c3)on2)CC1 | x | 2% | 22% | u | x | -8% | 4% | 5%
COc1ccc(C2CC3(O)NC(=O)C(C#N)(C3C)C2(C#N)C#N)cc1 (configuration not stated) | x | x | 0% | x | x | 3% | 0% | 9%
Cc1cc(C)n(-c2cc(Cl)ccc2[N+](=O)[O-])n1 | x | -5% | -1% | u | x | -16% | 0% | 3%
COc1cccc(F)c1C(C[N+](=O)[O-])c1c(N)n(C)c(=O)n(C)c1=O (configuration not stated) | x | x | 16µM* | x | x | 32µM* | -21% | -88%
CS(=O)(=O)N1CCN(C(=O)c2ccncc2)CC1 | -8% | 0% | 17% | 5% | 4.8% | -14% | 0% | -8%
O=C(NC(=S)Nc1nc(-c2cccc3ccccc23)cs1)c1cc2ccccc2o1 | 2.5µM* | -1% | 4% | 16% | -2.7% | -8% | -22% | 11%
CC(=O)OCP(C)(=O)COC(C)=O | 19% | 2% | 6% | 1% | 3.3% | -2% | -1% | -2%
CC(C)(C)c1ccc(C(=O)N2CCC(C(=O)NCc3ccncc3)CC2)cc1 | -9% | -12% | -9% | -2% | 0.4% | -8% | 3% | 1%
O=C(COc1ccc(Cl)cc1)Nc1cccc(S(=O)(=O)NC2=NCCCCC2)c1 | x | -41%[46.1 µM] | 9% | -17% | x | -12% | 2% | x
CSCc1c(C(=O)NC2CCCc3ccccc32)oc2ccccc12 (configuration not stated) | -8% | u | -2% | u | -2.1% | -3% | 4% | 7%
O=C(CSc1nc2nccnc2c(=O)n1CCc1c[nH]c2ccccc12)Nc1ccc(F)cc1 | 2% | -12%[46.1 µM] | x | x | 0.1% | -3% | x | x
C=CC[C@@H]1C=C[C@H](O/N=C/c2ccc(C(=O)N3[C@H](c4ccc(C)cc4)[C@@H](C)CC[C@H]3C(=O)OC)cc2)[C@@H](CO)O1 | u | u | x | -28% | -5.6% | x | -3% | -29%
Cc1ccc(NC(=O)c2cc([N+](=O)[O-])ccc2N2CCOCC2)cc1C | x | -14%[46.1 µM] | -7% | 7.1µM* | x | 2% | -9% | 12%
Cc1nc2sccn2c(=O)c1S(=O)(=O)NCCc1ccc(Cl)cc1 | x | x | 0% | x | x | -9% | 13% | 1%
COc1ccc(N=C2SC(C(N)=O)CC(=O)N2CCc2ccc(OC)c(OC)c2)cc1 (configuration not stated) | u | -5% | 5% | 1% | -0.2% | -18% | u | -6%
Cc1ccc(Cn2cnc3c(oc4ccccc43)c2=O)cc1 | -1% | -14%[46.1 µM] | x | x | -8.9% | 79%[activator] | x | x
CC(C)(C)NC(=O)/C=C/c1ccc(C(F)(F)F)cc1 | -6% | 11% | -31% | 25% | -0.4% | 28% | 15% | -14%
Cc1nc(NC(=O)c2ccccc2O)sc1C | x | x | -9% | x | x | 30% | -4% | -10%
O=C(O)COc1cnc2ccccc2n1 | x | u | 17% | -1%[46.1 µM] | x | -3% | 0% | 5%
O=C1CSC(c2cccnc2)N1c1ccccc1 (configuration not stated) | x | x | 4% | x | x | 10% | 1% | 6%
